Tg IFNy HTS – T. gondii growth inhibition under IFN-gamma; Toxoplasma gondii growth in IFN-gamma-treated host cells; hits give low values; reference of the scale not given here; 69,000 tested, 3.8% active; activity change, negative = inhibition, %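 (about 20 µM by stock and volumes)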;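 active means below -70%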;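 further: host cells are HeLa cells infected with Toxoplasma gondii; parasite growth read as luciferase light; one replicate is shown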
Active calls of the source: *; i = inactive.

no.	SMILES	Tg IFNy HTS
1	O=C(c1ccccc1-c1ncc[nH]1)N1CCCC(c2ccn[nH]2)C1 (stereo not given)	46.1
2	CC(C)(C)OC(=O)COc1cc(OCC(=O)OC(C)(C)C)c2c(=O)cc(-c3ccccc3)oc2c1	34.6
3	CNS(=O)(=O)c1ccc(CN2CCCC(CNC(C)=O)C2)cc1 (stereo not given)	4.9
4	COc1ccccc1-c1cn(CC[C@H]2CC[C@@H](NC(=O)C3CCCCC3)[C@@H](CO)O2)nn1	-44.1
5	Cc1ccccc1C(NC(=O)c1cccc(N2CCCC2=O)c1)c1ccncc1 (stereo not given)	14.9
6	Cc1ccn2c(CN3CCCC3c3ccc(-c4cnn(C)c4)cn3)c(C)nc2c1 (stereo not given)	-27.6
7	CC(C)CC(NC(=O)c1cn2ccsc2n1)c1nnc2n1CCNCC2 (stereo not given)	-13.8
8	Cc1ccc2nc(CCc3ccc(NC(=O)CCC4CCCO4)cc3)[nH]c2c1 (stereo not given)	98.2
9	CN1C[C@@H]2CN(C(=O)C3CCOC3)C[C@H]2C1=O (stereo not given in full)	-29.7
10	FC(F)(F)Oc1ccc(C2c3ccsc3CCN2Cc2ccccc2)cc1 (stereo not given)	-33.2
11	Cc1cc(=O)[nH]c2c1c(-c1ccccc1)nn2C	4.7
12	C[C@@H]1CN([C@@H](C)CO)C(=O)c2cc(N(C)C)ccc2O[C@@H]1CN(C)Cc1ccc(Oc2ccccc2)cc1	-52.0
13	CCc1ncc(C(=O)N(C)Cc2n[nH]c3c2CCCC3)cn1	-2.2
14	Cc1cc(=O)oc(C)c1C(=O)NCCC(C)C	2.1
15	C=CCNC(=O)N1CCC(Cc2nnc(SC)n2C)CC1	2.1
16	CCCCC[C@H](O)/C=C/C=C\C/C=C\C/C=C\CCCC(=O)O	-4.6
17	CCN1c2cc(C)ccc2-n2cccc2C12CCN(C(=O)Nc1ccccc1C)CC2	14.9
18	CN(n1cnc2ccsc2c1=O)S(C)(=O)=O	58.7
19	COc1cccc(OCC2CCCN(CC(=O)Nc3ccn(C)n3)C2)c1 (stereo not given)	0.0
20	Cc1ccc(S(=O)(=O)NCc2c(-c3ccccc3)noc2C)cc1	16.4
21	CCOc1ccc2oc(=O)cc(CN3CCN(Cc4nc(-c5ccccc5C)oc4C)CC3)c2c1	-31.2
22	CCCC(=O)Nc1ccc(-c2nc(Cn3cccn3)c(C)o2)cc1	12.8
23	CCOc1ccc(C(=O)N2CCCC2C(=O)O)cc1 (stereo not given)	-6.0
24	Cc1cc(NC(=O)NN2CCOCC2)no1	-56.4
25	CC(C)Cc1cc(C(=O)N2CCn3cccc3C2c2ccccn2)no1 (stereo not given)	8.7
26	CO[C@H]1CCN(C(=O)c2ccoc2)[C@H]2CN(Cc3ccncc3)C[C@@H]12	-6.0
27	COCC(=O)N1CCC2(CCCN(C(=O)Cc3cccnc3)C2)C1 (stereo not given)	-4.9
28	COc1ccc(CN(C)C(=O)[C@H]2C[C@@H]3C=C[C@H]2C3)c2cccnc12	-34.0
29	CN(C)C1COC2(CCN(C(=O)Cc3ccccn3)CC2)C1 (stereo not given)	-41.6
30	O=S(=O)(c1cccc(F)c1)N1[C@@H]2CNC[C@H]1C2c1ccc(-c2ccccc2F)cc1 (stereo not given in full)	-9.7
31	C=CCO[C@H]1CN(S(=O)(=O)c2cccnc2)[C@H]2CCCO[C@@H]12	-6.1
32	CCn1ncnc1CN1CCCC(CNC(=O)NC2CCCC2)C1 (stereo not given)	-4.9
33	C[C@H]1CN([C@@H](C)CO)C(=O)c2cc(-c3ccc(C#N)cc3)cnc2O[C@@H]1CN(C)Cc1cccnc1	27.6
34	O=C(O)c1cccnc1CN1CCc2c([nH]c3ccccc23)C1	1.4
35	COCCn1ccnc1-c1cc(CN2CCCCC2)cs1	-7.9
36	Cn1cc(COC(=O)Nc2c(Cl)cccc2Cl)c(C(F)(F)F)n1	-41.5
37	C=CC[C@@H]1CC=C[C@@H](C)N1C(=O)Cn1[nH]c(=O)ccc1=O	6.1
38	Cc1nc(-c2cccc(F)c2)sc1CCNS(=O)(=O)c1ccccc1F	46.7
39	Cc1cccc(-c2nc(C)c(CCNC(=O)c3ccc([N+](=O)[O-])cc3)s2)c1	i
40	O=C(C[C@@H]1C=C[C@H](NS(=O)(=O)c2ccc(F)cc2)[C@@H](CO)O1)N1CCc2ccccc2C1	40.5
41	CCc1nc(-c2c(-c3ccccc3)ncn2Cc2cnc(C)cn2)c(C)[nH]1	-8.3
42	O=C1C[C@H](c2ccccc2)C(=O)N[C@H](c2ccccc2)C/C=C\C[C@@H](c2ccccc2)N1	5.1
43	COc1cccc(F)c1-c1ccc(C(C)NC(C)=O)cc1 (stereo not given)	2.4
44	COCCN1CC2(CCC1=O)CCN(C(=O)C1CCOCC1)CC2	2.2
45	COc1cccc(S(=O)(=O)N2[C@@H]3CNC[C@H]2C3c2ccc(-c3cccc(C)c3)cc2)c1 (stereo not given in full)	29.4
46	O=C(c1cc2cccnc2n(Cc2ccc(F)cc2)c1=O)N1CCN(c2ccccc2)CC1	-61.2
47	O=C(Nc1ccnn1C1CCN(CCC2CCOC2)CC1)c1ccccc1 (stereo not given)	0.5
48	Cc1nc2c(c(=O)n1C)CCN(C(=O)c1cn3ccsc3n1)CC2	9.4
49	CCn1c(C2CCCNC2)nn(Cc2nc(-c3cccs3)oc2C)c1=O (stereo not given)	-6.5
50	CC(C)(C)c1ccc(CN2CCN(c3cc(N)nc(N)n3)CC2)cc1	-0.4
51	CCn1c(-c2cc(NC(=O)c3cccnc3)n[nH]2)cc2c(OC)cccc21	-47.9
52	CC(C)CN1C[C@@H]2C[C@H](C(=O)N3CCOCC3)[C@@H](C1)O2	-37.8
53	Cc1ccccc1NC(=O)C1c2ccccc2Oc2ccccc21	-4.6
54	CCN(Cc1c(F)cccc1Cl)C(=O)CC1C(=O)NCCN1C(C)C (stereo not given)	-1.2
55	CCC/C=C/c1ncccc1NC(=O)C1CC1	-12.0
56	Cc1nccn1CC1(O)CCN(C(=O)CCN2CCc3ccccc32)CC1	104.1
57	Cc1cccc(CN2CCC3(CCC(COCC4CC4)N3C)CC2)n1 (stereo not given)	-84.8*
58	CCOC(=O)c1nc(N(CC)c2ccccc2)c2ccccc2n1	14.1
59	O=c1[nH]c2cc3c(cc2cc1CNc1ccc(N2CCCCC2)cc1)CCC3	-98.9*
60	C=CCOCc1cncc2c1CCN(C(=O)C1CCOCC1)C2	-5.6

Seven records picked at random from those above, as already listed:
no.	SMILES	Tg IFNy HTS
49	CCn1c(C2CCCNC2)nn(Cc2nc(-c3cccs3)oc2C)c1=O (stereo not given)	-6.5
56	Cc1nccn1CC1(O)CCN(C(=O)CCN2CCc3ccccc32)CC1	104.1
55	CCC/C=C/c1ncccc1NC(=O)C1CC1	-12.0
59	O=c1[nH]c2cc3c(cc2cc1CNc1ccc(N2CCCCC2)cc1)CCC3	-98.9*
57	Cc1cccc(CN2CCC3(CCC(COCC4CC4)N3C)CC2)n1 (stereo not given)	-84.8*
54	CCN(Cc1c(F)cccc1Cl)C(=O)CC1C(=O)NCCN1C(C)C (stereo not given)	-1.2
50	CC(C)(C)c1ccc(CN2CCN(c3cc(N)nc(N)n3)CC2)cc1	-0.4

More results
no.	SMILES	Tg IFNy HTS
61	O=C(O)c1cncc(-c2cccs2)c1	-16.6
62	Cc1cc(NS(=O)(=O)c2ccc(Nc3nc(-c4sc(C)nc4C)cs3)cc2)no1	-19.2
63	Cn1cc(C(=O)NCc2cncc3c2CCN(S(C)(=O)=O)C3)cn1	-3.7
64	CCc1cnc(N2CCC3(CC2)CCN(c2cnn(C)c2)C3=O)nc1	24.2
65	O=C(c1ccc[nH]1)N1CCC2(CCC(=O)N2Cc2ccncc2)CC1	497.5
66	O=C(O)C1Cc2nc[nH]c2CN1C(=O)CCSCc1ccc(F)cc1 (stereo not given)	1.6
67	CCOc1ccc(-c2noc(-c3c(O)c4ccccc4n(C)c3=O)n2)cc1OC	-36.1
68	S=C(Nc1ccccc1)N1CCN(c2nc(-c3ccc(Cl)cc3)cs2)CC1	65.6
69	C=C1SC(=Nc2ccccc2Cl)N(C(=O)c2sc3ccccc3c2Cl)C1(C)C	-28.2
70	O=C(NC1CCCC1)N1CCC2(CC1)Nc1cc(F)ccc1-n1cccc12	144.8
71	COc1ccccc1C(=O)N1C[C@@H]2[C@H](c3ccccc31)[C@H](CO)N2C(=O)Cc1ccccc1	-15.9
72	Clc1ccc(CSc2nc(Nc3ccc4c(c3)OCO4)c3ccccc3n2)cc1	-56.5
73	CC(C)N(C)[C@H]1c2ccccc2[C@H]2CN(Cc3ccsc3)C[C@H]21	140.2
74	CCOCc1nnc(NC(=O)c2ccnc(OC)c2)s1	-10.9
75	CCCS(=O)(=O)N1CCO[C@@H]2[C@H]1CC[C@H]2OCC1CCOCC1	2.2
76	COc1ccccc1OC(=O)CNC(=O)Cc1ccc(C(=O)c2ccc(C)cc2)n1C	10.7
77	COc1ccc2c(c1)NC1(CCN(C(=O)Cc3ccccc3C)CC1)c1cccn1-2	19.1
78	Cc1nc(C2CCCCN2S(=O)(=O)c2cn(C)cn2)ncc1C(=O)N1CCCCC1 (stereo not given)	-18.9
79	CN(C)CCOCc1nnc2n1CCN(C(=O)c1ccc[nH]1)C2	2.1
80	COc1ccc(C(=O)N2CCC(n3c(=O)oc4ccccc43)CC2)cc1OC	18.5
81	O=C(NCCS(=O)(=O)c1ccc(F)cc1)C1OCCc2ccccc21 (stereo not given)	9.8
82	COc1cc(F)ccc1-c1ncccc1NC(=O)C(C)C	4.4
83	CN1CC2(CCCN(Cc3ccc(F)c(C(F)(F)F)c3)C2)OC1=O (stereo not given)	-56.8
84	O=C(/C=C/c1c[nH]c2ccccc12)c1cccc2ccccc12	43.6
85	COC(=O)[C@@H]1C[C@H](NC(=O)c2ccc(C)c(-n3cccc3)c2)CN1C	14.3
86	CCCn1ncc(C(=O)N2CCCN(S(C)(=O)=O)CC2)c1C	-2.7
87	C=CCNC(=O)c1ccc(-c2cccc(-n3cccn3)c2)o1	2.9
88	CCc1nn2c(C)c(C(=O)Nc3ccccc3OC)nnc2c1-c1ccc(F)cc1	48.1
89	C[C@@H]1CN([C@H](C)CO)C(=O)c2cccc(NS(C)(=O)=O)c2O[C@H]1CN(C)Cc1ccc(-c2ccccc2)cc1	-32.7
90	COc1ccc(S(=O)(=O)N2C[C@@H]3OCCN(c4ncc(F)cn4)[C@H]3C2)cc1	-26.9
91	O=C(OC1C[C@H]2CC[C@@H](C1)[N+]21CCCC1)C(O)(c1ccccc1)c1ccccc1 (stereo not given in full)	4.8
92	CCN(CCCNC(=O)CCC1Nc2c3ccccc3nc(=S)n2C1=O)c1ccccc1 (stereo not given)	7.9
93	COc1cccc(C(=O)N2C[C@H]3[C@@H](c4ccccc42)[C@H](CO)N3C(=O)c2cccc(F)c2)c1	-6.7
94	CCS(=O)(=O)N1CCOCC2(CCC(Cn3cccn3)O2)C1 (stereo not given)	104.4
95	C=CCNc1ccccc1C(=O)N1CC=C(n2c(=O)[nH]c3ccccc32)CC1	34.3
96	O=C(Cn1ncc2c(N3CCCCC3)ncnc21)NCc1cccc(Cl)c1	-13.6
97	CN1CCN(C(=O)C[C@H]2CC[C@@H]3[C@H](COC[C@@H](O)CN3CC3CCCCC3)O2)CC1	10.1
98	CCCCc1cn(CC2CCCN(C(=O)c3n[nH]c4c3CCCC4)C2)nn1 (stereo not given)	2.8
99	COc1ccc(-n2ccnc2C(C)Cc2ccc3c(c2)OCO3)cn1 (stereo not given)	-19.6
100	O=C(O)c1ccc(C(=O)O)c(OC(F)(F)F)c1	12.5
101	Cc1nnc(Sc2nc(Nc3ccc(C)c(C)c3)nc(Nc3ccc(C)c(C)c3)n2)s1	-46.9
102	O=C(Cn1c(=O)cc(-c2nc(C3CC3)no2)c2ccccc21)NCc1ccc(F)cc1	10.4
103	COc1ccc(-c2nc(NCC3CCN(Cc4ccccc4Cl)CC3)c3ccccc3n2)cc1	-88.5
104	COc1ccc(C2CCCN2CC(=O)Nc2nccs2)cc1OC (stereo not given)	7.5
105	OCCN(Cc1nc(-c2ccc3c(c2)OCO3)no1)Cc1cccs1	6.0
106	Cc1noc([C@@]23COC[C@@H]2CN(C(=O)c2ccc(C)o2)C3)n1	-3.5
107	CCNC(=O)C1(Cc2ccccc2-c2ccsc2)CN(C(=O)C(C)C)CCO1 (stereo not given)	-21.1
108	O=C(CN1CCOC1=O)NCCc1cccc(F)c1	2.4
109	CCc1[nH]c2c(CNS(=O)(=O)c3cn(C)c(C)n3)cc(C)cc2c1C	1.5
110	Cc1ccc(S(=O)(=O)NN=C2C3CC4CC(C3)CC2C4)cc1	-2.0
111	CN(C)CC1CCC2(COCCN(C(=O)Cc3ccc(F)cc3)C2)O1 (stereo not given)	17.1
112	Cc1oc(-c2ccc(NC(=O)c3ccc(F)cc3)cc2)nc1Cn1cccn1	23.4
113	CCn1c(C)nc2cc(NC(=O)c3nonc3C)ccc21	53.5
114	CCn1nc(CC(C)C)cc1C(=O)N1Cc2cnn(CCO)c2C1	156.4
115	CC1(C)Cc2ccccc2C(/C=C2/NC(C)(C)Cc3ccccc32)=N1	-67.2
116	C[C@H]1CC(=O)NCC/C=C\C[C@H](c2ccc3c(c2)OCO3)NC1=O	-9.0
117	O=C(NCCc1csc(-c2ccccc2)n1)[C@H]1CCCN1C(=O)c1cccc(Cl)c1	3.3
118	CCC[C@H](NC(=O)[C@@H]1[C@H]2CCC[C@H]2CN1C(=O)[C@@H](NC(=O)[C@@H](NC(=O)c1cnccn1)C1CCCCC1)C(C)(C)C)C(=O)C(=O)NC1CC1	-73.9*
119	O=C(Nc1cccc(-c2nnco2)c1)c1cccs1	-12.9
120	CC(C)OC(C)c1nnc(SCC(=O)O)n1-c1ccccc1 (stereo not given)	-41.0

(cont.)
no.	SMILES	Tg IFNy HTS
121	CCNc1ncc(-c2nccn2CCN(C)C)cn1	-0.7
122	CCn1c(C2CCCN(C(=O)Cc3cnc4ccccn34)C2)nn(C)c1=O (stereo not given)	2.4
123	O=C(C[C@@]12COC[C@H]1CN(c1ncc(F)cn1)C2)NCc1ccccn1	0.9
124	Cc1ccc(OCCNC(=O)c2ccc(C(C)(C)C)cc2)cc1C	10.5

These rows are one share of the data, so the mix of outcomes need not match the whole.
